Screens (PubChem)
VDR inh – inhibitors of human vitamin D receptor. P11473. VDR-SRC2-3 peptide fluorescence polarization, 2 h. Potency, µM, for inactives: max response, negative = inhibition, most hits filed as inhibitors. 400,000 tested, 0.93% active; active = well fitted inhibition curve with a large enough effect; inconclusive = small, poorly fitted or top-dose-only effect, or another doubt; inactive = no such curve, though single readings can be large or run the other way; note: series mostly up to about 120 µM
Target sequence (P11473 whole entry, looked up): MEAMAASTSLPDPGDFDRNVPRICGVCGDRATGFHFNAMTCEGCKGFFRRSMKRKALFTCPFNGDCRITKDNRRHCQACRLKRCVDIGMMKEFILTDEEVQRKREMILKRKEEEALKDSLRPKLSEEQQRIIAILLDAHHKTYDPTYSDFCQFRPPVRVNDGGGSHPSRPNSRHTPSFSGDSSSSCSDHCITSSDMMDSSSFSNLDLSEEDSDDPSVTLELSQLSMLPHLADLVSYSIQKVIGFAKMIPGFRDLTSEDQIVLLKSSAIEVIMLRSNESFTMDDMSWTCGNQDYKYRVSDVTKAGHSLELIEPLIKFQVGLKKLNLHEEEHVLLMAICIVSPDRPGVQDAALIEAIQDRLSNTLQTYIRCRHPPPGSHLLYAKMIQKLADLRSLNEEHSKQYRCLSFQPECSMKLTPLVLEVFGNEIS
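The screen uses fluorescence polarization to detect compounds that interfere with recruitment of the SRC2-3 coactivator peptide to VDR; plates are read after 2 h at room temperature.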
Starred values were filed as active, the others as inactive; ? = inconclusive; & = joins results of further samples; [ ] = another dose, or the depositor's remark. % is set by controls: 0 for no effect and ±100 for the full control effect; potency is the fitted concentration of half-maximal effect. Only part of the results is shown; the hit share may differ from the screen's.

SMILES	VDR inh
CCOC(=O)c1c(C)oc2ncnc(N3CCN(c4ccccc4)CC3)c12	6.4%
O=C1C(c2ccc(F)cc2)N(CC2COc3ccccc3O2)C(=O)CN1C1CCCCC1 (stereo not drawn)	-1.2%
CC(=O)Nc1cccc(OCC(=O)/C=C2\N(C)c3ccccc3C2(C)C)c1	-3.1%
COc1ccc2c(c1)sc(=N)n2CC(=O)Nc1cc(C)cc(C)c1	-4.4%
Cc1cc(=O)nc2c3ccccc3n(C(C)C(=O)NCCC(C)C)n12 (stereo not drawn)	-28.2%
Fc1ccc(NC(=S)N2CCCc3ccccc32)cc1	-1.3%
C#C[C@]1(O)CC[C@H]2[C@@H]3CCC4=CCCC[C@@H]4[C@H]3C(=C)C[C@@]21CC	1.5%
CN(C(=O)CSc1nc2ccccc2n1CCc1ccccc1)C1CCS(=O)(=O)C1 (stereo not drawn)	-20.1%
CCOC(=O)N1CCC(N2C(=O)c3ccccc3C2Nc2ccccc2C)CC1 (stereo not drawn)	-17.7%
Cc1ccc(NC(=O)CN2C(=O)CCSc3ccc(S(=O)(=O)N4CCCC4)cc32)cc1C	-18.4%&-4.1%
COc1ccc(N(CC(=O)NCc2cccnc2)S(=O)(=O)c2c(C)nn(C)c2C)cc1	-1.9%
CN1CCN(C(=O)CCN2C(=O)S/C(=C/c3ccc(Cl)cc3)C2=O)CC1	-2.2%
COc1ccccc1NC(=O)c1cc(C(=O)Nc2ccccc2OC)cc(N2C(=O)CCC2=O)c1	-9.0%
COc1ccc(NC(=O)c2cc(CC(C)C)nc3ccccc23)cc1	-11.1%
Cc1ccccc1N(CC(=O)NCc1ccc2c(c1)OCO2)C(=O)CCC(=O)Nc1ccccn1	11.1%
COc1ccccc1-c1nnc(SCC(=O)Nc2cc(C)on2)o1	-4.8%
Cc1cc(C)c(NC(=O)COC(=O)c2ccncc2)c(C)c1	22.4%
Cn1c(=O)n(Cc2ccccc2F)c(=O)c2c1nc1n2CCCN1CCc1ccccc1	6.1%
O=C1NC(=O)c2cc(NC(=O)C3CCCCC3)ccc21	-13.3%
COc1ccc(CNC(=O)Cn2c(-c3ccccc3)cc(C(C)=O)c2C)cc1OC	18.1%
Cc1ccc(-n2c(CNc3ccc(F)cc3)nnc2SCC(=O)NCc2ccco2)cc1	3.4%
O=[N+]([O-])c1ccc(CS(=O)(=O)c2ccc(Cl)cc2)cc1	-17.7%
CSc1nc2sc3c(c2c(=O)n1C)CCC3	-22.2%
CCC(=O)c1cn(CC(=O)Nc2ccc(C)cc2C)c2ccccc12	3.8%
Nc1cc(=O)[nH]c(SCC(=O)Nc2cc(Cl)cc(Cl)c2)n1	-5.3%
Cc1ccc(Sc2ccc(N3CCCC(C(=O)Nc4ccc(Br)cc4)C3)nn2)cc1 (stereo not drawn)	-8.1%
Cc1ccc2nc(Cl)c3cc(C(=O)NC4CCCCCC4)sc3c2c1	-1.5%
O=C(N/N=C1\SCC(=O)N1CCc1ccccc1)c1cccs1	-4.0%
O=C(COC(=O)c1ccc(Cl)nc1)NC1CCCc2ccccc21 (stereo not drawn)	-4.7%
CCCCn1c(N)c(N(Cc2ccccc2OC)C(=O)C2=COCCO2)c(=O)[nH]c1=O	1.3%
Cc1nnc(NC(=O)NCN2C(=O)C3C4C=CC(C4)C3C2=O)s1 (stereo not drawn)	13.3%
CCOC(=O)c1cn2nc(N3CCCCC3)ccc2n1	-6.6%
Clc1ccc(-c2nnc3c4ccccc4nc(N4CCOCC4)n23)cc1Cl	-0.2%
COCCNC(=O)/C(C#N)=C/c1c(N2CC(C)OC(C)C2)nc2ccccn2c1=O (stereo not drawn)	-14.9%
O=c1[nH]nc(CNc2ccc(OC(F)(F)F)cc2)c2ccccc12	-7.5%
CN(C)c1nc2c(c(=O)[nH]c(=O)n2C)n1CCCc1ccccc1	-0.9%
CCC(=O)Oc1ccc(C(=O)Nc2cccc(C(=O)NC(C)(C)C)c2)cc1	13.3%
O=C(NCc1nnnn1-c1ccc(F)c(F)c1)c1ccc2c(c1)OCO2	2.4%
COc1ccc(CCNC(=O)/C(=C/c2cccnc2)NC(=O)c2ccccc2)cc1OC	1.7%
COCCn1c(C)cc(C(=O)COC(=O)C23CC4CC(CC(O)(C4)C2)C3)c1C	9.3%
Cc1ccc2[nH]c(C)cc(=O)c2c1	-3.4%
CCOc1cc(C(=O)OCC(=O)Nc2cccc(S(=O)(=O)NC3=NCCCCC3)c2)cc(OCC)c1OCC	-21.7%
O=S(=O)(c1ccccc1)N1CCC2(CCN(Cc3nccs3)CC2)CC1	7.2%
Cc1ccc(-c2nc(CS(=O)CC(=O)N3CCN(c4cccc(Cl)c4)CC3)c(C)o2)cc1 (stereo not drawn)	-18.3%
Cc1cccc(-c2nnc(SCC(=O)Nc3ncccn3)n2C)c1	22.0%

Arranged by heavy-atom count (largest number first): part of the list above
SMILES	VDR inh
Cc1ccccc1N(CC(=O)NCc1ccc2c(c1)OCO2)C(=O)CCC(=O)Nc1ccccn1	11.1%
Cc1ccc(Sc2ccc(N3CCCC(C(=O)Nc4ccc(Br)cc4)C3)nn2)cc1 (stereo not drawn)	-8.1%
CCOC(=O)N1CCC(N2C(=O)c3ccccc3C2Nc2ccccc2C)CC1 (stereo not drawn)	-17.7%
CN1CCN(C(=O)CCN2C(=O)S/C(=C/c3ccc(Cl)cc3)C2=O)CC1	-2.2%
CN(C)c1nc2c(c(=O)[nH]c(=O)n2C)n1CCCc1ccccc1	-0.9%
O=C1NC(=O)c2cc(NC(=O)C3CCCCC3)ccc21	-13.3%

Next part
SMILES	VDR inh
COc1ccc2nc(NC(=O)C3COc4ccccc4O3)sc2c1 (stereo not drawn)	-3.2%
Cc1ccc(C(=O)NCC(=O)Nc2ccncc2)s1	-8.4%
Cc1[nH]c2ccccc2c1/C=C/C(=O)c1ccncc1	4.5%
N#Cc1c(N)nc2c3c(sc(=N)c2c1N)NC(=O)CC3c1c(F)cccc1Cl (stereo not drawn)	-5.9%
CS(=O)(=O)Nc1cccc(C2=NN(S(=O)(=O)c3ccccc3)C(c3ccco3)C2)c1 (stereo not drawn)	-14.4%
CS(=O)(=O)c1ccc(S(=O)(=O)N2CCC(CO)(CCCc3ccccc3)CC2)cc1	-17.1%
CC(=O)Nc1nonc1-c1nnc(SCC(=O)Nc2ccccc2)n1-c1ccccc1	6.7%
COCCc1nn2c(=O)cc(COC(=O)c3cc(OC)c(OC)c(OC)c3)nc2s1	-7.6%
Cc1ccc(C2C(/C=C3/SC(=S)NC3=O)=C(c3cccs3)Oc3ccccc32)cc1 (stereo not drawn)	1.5%
COc1cc2[nH]c(=O)n(CCCCCC(=O)NCCc3c[nH]c4ccccc34)c(=O)c2cc1OC	-13.1%
Nc1ccccc1-c1n[nH]c(=S)s1	?
O=C(NCC(=O)N1CCN(Cc2ccccc2)CC1)c1ccc(Br)cc1	2.2%
CN(C)N1C(N)=C(C#N)C(c2ccc(F)cc2)C2=C1CCCC2=O (stereo not drawn)	-6.4%
Cc1ccc(-c2nnc(Nc3ccc(O)cc3)c3ccccc23)cc1S(=O)(=O)NC(C)(C)CO	13.8%
CCCc1ccc(OCC(=O)Nc2sc3c(c2C(=O)OCC)CCC(C(C)(C)C)C3)cc1 (stereo not drawn)	-13.6%
C[C@H](CO)N1C[C@H](C)[C@@H](CN(C)S(=O)(=O)c2cn(C)cn2)Oc2ccc(NC(=O)Cc3ccccc3)cc2C1=O	-17.3%
Cc1cc(C)c(C)c(OCCCOc2cccc3cccnc23)c1	-5.2%
COc1ccc(CCC(C(O)C(F)(F)F)S(=O)c2ccccc2)cc1 (stereo not drawn)	-6.0%
CC1(C)CC(NC(=O)c2ccccn2)CC(C)(C)N1O	2.7%
N#Cc1c(-c2ccccc2)nc(SCC(=O)N(c2ccccc2)c2ccccc2)[nH]c1=O	-22.7%
CCN(CC(=O)NCc1ccc(F)cc1)C(=O)C1CCN(C(=O)Nc2ccccc2)CC1	7.0%
O=C(Nc1ccc(F)cc1)Nc1nnc(-c2ccncc2)s1	-6.7%
CCOC(=O)N1CCC(N2Cc3cccc(C(=O)NCc4ccccn4)c3C2=O)CC1	3.5%
COc1ccc(Nc2nc(N)c([N+](=O)[O-])c(N3CCN(C)CC3)n2)cc1	-8.9%
Cc1cc(O)c(C(c2ccccc2Cl)N2CCN(c3ccccc3)CC2)c(=O)n1Cc1ccco1 (stereo not drawn)	-10.1%
Cc1ccc(-n2c(SCC(=O)Nc3ccc4c(c3)OCO4)nc3c([nH]c4ccccc43)c2=O)cc1	5.7%
CC(C)c1nc2c(s1)CCc1onc(-c3cccc([N+](=O)[O-])c3)c1-2	-17.3%
O=C(Nc1cccc(C(F)(F)F)c1)Nn1cnnc1	-14.6%
OCC[C@@H]1C[C@@H](O)[C@H](O)[C@@]2(OCCc3ccccc32)O1	-8.8%
CCn1nc(-c2ccccc2)c2nc3ccccc3nc21	6.8%

Quoted at random: 2 entries already listed
SMILES	VDR inh
O=C(Nc1cccc(C(F)(F)F)c1)Nn1cnnc1	-14.6%
C[C@H](CO)N1C[C@H](C)[C@@H](CN(C)S(=O)(=O)c2cn(C)cn2)Oc2ccc(NC(=O)Cc3ccccc3)cc2C1=O	-17.3%

As entered above.
In VDR inh, N#Cc1c(-c2ccccc2)nc(SCC(=O)N(c2ccccc2)c2ccccc2)[nH]c1=O has -22.7%
In VDR inh, CCC(=O)c1cn(CC(=O)Nc2ccc(C)cc2C)c2ccccc12 has 3.8%
In VDR inh, O=C(NCc1nnnn1-c1ccc(F)c(F)c1)c1ccc2c(c1)OCO2 has 2.4%
In VDR inh, CS(=O)(=O)Nc1cccc(C2=NN(S(=O)(=O)c3ccccc3)C(c3ccco3)C2)c1 (stereo not drawn) has -14.4%

Following part.
SMILES	VDR inh
CCCCCn1cc2c(c1-c1ccccc1Br)c(=O)n(C)c(=O)n2C	-7.0%
O=S(=O)(c1ccc(NC(=S)N/N=C/c2ccc(Oc3ccccc3)cc2)cc1)N1CCOCC1	14.1%
O=C(OCC(=O)c1c[nH]c2ccccc12)c1cc(Br)ccc1O	?
Cc1ccc(C(=O)/C=C\C(=O)c2ccc(C)cc2)cc1	79.4µM*
COc1ccc(S(=O)(=O)c2c(O)c3ccc(C(=O)NCc4ccc(F)cc4)cc3[nH]c2=O)cc1	2.9%
CSc1ncc(C(=O)Nc2ccc(Br)cn2)c(C)n1	3.3%
COCCn1c(=O)c(-c2cccs2)nc2cnc(N3CCN(C)CC3)nc21	-0.3%
CC1CCCC/C1=N\NS(=O)(=O)c1ccc(Br)cc1 (stereo not drawn)	-0.8%
COc1ccc(C(=O)N/N=C/c2ccc(OC(=O)c3cccs3)cc2)cc1	-12.4%
COc1cc(C#Cc2c(-c3cncn3C)n(C)c3ccc(-c4cnc(OC)nc4)cc23)cc(OC)c1	-0.9%
CCOCCCNC(=O)c1ccc(Cn2c(=O)[nH]c3ccsc3c2=O)cc1	-7.9%
COc1ccccc1NS(=O)(=O)c1cccc(C(=O)NCC(C)(C)N2CCOCC2)c1	8.2%
Cc1ccccc1NC(=O)OCCN1CCN(Cc2ccccc2)CCC1=O	11.0%&5.5%
CCN(C(=O)COC(=O)c1ccccc1Cc1ccccc1)C1CCS(=O)(=O)C1 (stereo not drawn)	-1.6%
O=C(Nc1nc(-c2ccc(S(=O)(=O)N3CCCC3)cc2)cs1)c1cccs1	4.5%
COc1cccc(/C=C/C2=CC(C)(C)NC(=S)N2)c1	-22.9%
COc1ccc(-n2nnnc2-c2cccnc2)cc1	18.5%
COC(=O)C1C(O)=C(C=NCC(C)N=CC2=C(O)C(C(=O)OC)C(C)(C)CC2=O)C(=O)CC1(C)C (stereo not drawn)	-6.3%
N#CC(c1ccc(Cl)cc1)(c1ncc(C(F)(F)F)cc1Cl)N1CCOCC1 (stereo not drawn)	-5.9%
O=[N+]([O-])c1cccc(OCCN2CCC(Cc3ccccc3)CC2)c1	15.8%
COC(=O)C1=CN(C)C=C(C(=O)OC)C1c1ccsc1	-16.7%
Cc1ccc(C(=O)NC(=S)Nc2ccccc2C(F)(F)F)cc1	44.7%[activator]
O=C(c1ccc(Cl)cc1)N1CCN(c2ccnc3cc(Cl)ccc23)CC1	15.9%
COc1cccc(-n2nnnc2SCC(=O)NC2CCCCC2)c1	-9.7%
CN(C)c1ncc2nc(-c3ccc(Cl)cc3)c(=O)n(CCC#N)c2n1	1.4%
ClC(Br)=C(n1cnc2ccccc21)n1cnc2ccccc21	-12.4%
O=C(NCc1ccccc1)c1onc(CSc2ccc(Cl)cc2)c1C(=O)NCc1ccccc1	-8.0%
O=C(c1cccc(Cl)c1)N1CCC2CC1c1cc(-c3ccc(F)cc3)ccc12 (stereo not drawn)	-3.5%
O=C(CSc1nnc(NC(=O)C2CCC2)s1)NC1CC1	-8.3%
CN1/C(=N\O)c2cccc3cccc1c23	?
O=C(NCCN1CCOCC1)c1sc2ccccc2c1Cl	-1.1%
Cc1ccc(NC(=O)Nc2csc3c2CCCC3)c(C)c1	6.7%
Cc1ccc(Cl)cc1NC(=O)c1sc2nc(-c3ccccc3)cn2c1C	5.7%
COc1ccc(-c2nnc(Nc3nc4c(OC)cccc4s3)o2)c(OC)c1	-11.5%
CCn1c(SCC(=O)NCc2ccccc2)nc2nc3c(cc2c1=O)CCCC3	-11.9%
COc1ccc(CN2C(=O)CS/C2=N/N=C/c2cccs2)cc1	-6.1%
CCNC(=S)Nc1cc(OCC)c(NC(=O)c2cccs2)cc1OCC	8.9%
COc1ccc(Cn2ccnc2SCC(=O)NC2CCCC2)cc1	-3.2%&8.7%
COc1ccc(NC(=O)c2ccco2)cc1NC(=O)COc1ccccc1	-21.8%&-2.7%
COc1ccc(CNC(=O)COC(=O)/C=C/c2ccco2)cc1	5.3%
CC1CN(C(=O)c2cc3ccccc3oc2=O)CC(C)O1 (stereo not drawn)	13.1%
COc1cccc(-c2ncc3ccccc3c2COC(=O)CCC(=O)O)c1	-14.7%
Cc1ccc(SCc2c(C(=O)N/N=C/C3CC=CCC3)nnn2-c2nonc2N)cc1 (stereo not drawn)	-0.9%
CCC(=O)N1CCc2cc(S(=O)(=O)NC(C(=O)NCCc3cccc(C)c3)C(C)C)ccc21 (stereo not drawn)	-13.2%
